Compound activity deposited in PubChem BioAssay by Fisher Drug Discovery Resource Center.
NPYLR7 agonist: activates Aedes aegypti NPYLR7 receptor. AID 1259423. HEK293T NPYLR7/Galpha15, GCaMP6s calcium fluorescence. activation, % at 10 µM. 0.15% of 270,000 active; in the data active = activation above about 40%;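 note: 0% = vehicle and 100% = reference agonist at the receptor; some compounds past the cut are filed as inactive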
NPYLR7 agonist max-min: also measured in NPYLR7 agonist; calls as there; activation, %; measured here: Max-Min RFU normalised activation; some inactives read as strong as hits;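 span of the calcium signal over five minutes; 0% = vehicle and 100% = native peptide agonist; compound fluorescence can raise it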
The depositor's hits bear a star; & = joins results of further samples.

no.	molecule	NPYLR7 agonist max-min	NPYLR7 agonist
1	COc1ccc(-c2csc(=Nc3cc(OC)cc(OC)c3)n2CC2CCCO2)cc1 (stereo not given)	-18.6	-9.6
2	CCC(CC)n1ncc(C)c1NC(=O)c1cc(Cl)ccc1C	18.7	0.3
3	CCc1c(C(=O)N2CCCC2)c(C)nn1-c1ccccc1C	21.5	19.4
4	C=CCOC(CN1CCN(C(=O)c2cccn2C)CC1)c1cccc(N2CCCC2)c1 (stereo not given)	7.6	-2.9
5	Cc1ccc(-n2ncc3c(C(C)C)nnc(SCC(=O)NCC4CCCO4)c32)cc1C (stereo not given)	-20.8	-17.4
6	Cc1nc2c(c(C)c1CNC(=O)Nc1nnc(C3CC3)s1)c(=O)[nH]n2C	-0.6	1.2
7	O=C(CSc1ncnc2scc(-c3ccc(Cl)cc3)c12)N1CCCCC1	-14.4	-5.8
8	c1cnc(SCc2cn3ccsc3n2)nc1	-2.3	-1.3
9	Cc1nccn1-c1ncnc2scc(-c3ccccc3)c12	5.5	13.4
10	CCOc1c(C)cnc2c1c(=O)n(CC(=O)Nc1cc(C)ccc1C)c(=O)n2C	1.5	2.9
11	CCOC(=O)c1[nH]cnc1NOC(C)=O	0.1	-0.4
12	CC1c2ccsc2CCN1Cc1cc2c(cc1O)OCO2 (stereo not given)	4.6	9.6

Whole records as entered above. Screens in order: NPYLR7 agonist max-min | NPYLR7 agonist
`c1cnc(SCc2cn3ccsc3n2)nc1` as listed: -2.3 | -1.3
`CCOC(=O)c1[nH]cnc1NOC(C)=O` as listed: 0.1 | -0.4
`CC1c2ccsc2CCN1Cc1cc2c(cc1O)OCO2` (stereo not given) as listed: 4.6 | 9.6

The listing picks up with the three entries that preceded the break.
no.	molecule	NPYLR7 agonist max-min	NPYLR7 agonist
10	CCOc1c(C)cnc2c1c(=O)n(CC(=O)Nc1cc(C)ccc1C)c(=O)n2C	1.5	2.9
11	CCOC(=O)c1[nH]cnc1NOC(C)=O	0.1	-0.4
12	CC1c2ccsc2CCN1Cc1cc2c(cc1O)OCO2 (stereo not given)	4.6	9.6
13	CNC(=O)C1CCN(C(=O)Cc2nc(-c3ccccc3)oc2C)CC1	-23.6	-24.1
14	CC(=O)c1ccc(N2CCN(C(=O)c3csc(-c4ccccc4)n3)CC2)c(F)c1	-3.9	-2.3
15	CCCCc1ccc(-c2ccc(-n3cncc3C(=O)NCCc3ccccc3OC)cc2)cc1	3.9	11.3
16	CSC(=NS(=O)(=O)c1cccs1)Nc1ccc(F)cc1	4.0	6.4
17	COCCOC(=O)C1=C(C)NC2=C(C(=O)CC(c3ccccc3)C2)C1c1ccc(OC)cc1 (stereo not given)	7.1	2.8
18	CCOC(=O)c1cc(OC)c2cccc(CN3CCCC(C)(C(=O)NCCOC)C3)c2c1 (stereo not given)	2.8	5.2
19	CCCCNC(=O)Cc1csc(SCC(=O)c2cccs2)n1	-0.7	-0.4
20	CCCN=C1N/C(=C\c2ccccc2)C(=O)N1c1cccc(Cl)c1	-3.4	-2.5
21	COc1ccc2c(c1)OC(C)CN(CC(=O)NCC(c1ccc(F)cc1)N1CCCC1)C2 (stereo not given)	-3.8	10.4
22	CCSc1nnc(NC(=O)c2ccc(C(C)(C)C)cc2)s1	-1.5	-1.0
23	CCc1nn(-c2ccc(F)cc2)c(N2CCN(C(C)C)CC2)c1CN(CC(C)C)C(=O)c1ccc(Cl)c(Cl)c1	17.2	10.0
24	CC(=O)Oc1c(-c2ccc(N)cc2)c(-c2ccc(C)cc2)nn1-c1cccc(C)c1	10.4	18.7
25	Cc1cc2ccccc2n1CC(=O)NCC(c1ccccc1)N(C)C (stereo not given)	0.2	-0.8
26	COCCn1cc(NC(=O)Nc2ccccn2)c2ccccc21	11.2	17.9
27	CSc1ccc(C(=O)C2CCCN(C(=O)CCc3n[nH]c(C)n3)C2)cc1 (stereo not given)	-17.0	-4.9
28	COc1ccc(OCCNC(=O)c2ccc3nc(C)c(N(C)C=O)n3c2)cc1	16.3	15.3
29	C=CCOc1ccc(S(=O)(=O)c2ccc(O)cc2)cc1	-12.4	-9.7
30	Cc1ccc(C(=O)NCCc2nnc3n2CCCCC3)cc1	2.1	2.6
31	CCCCOc1ccc(-c2cc3c(=O)n(CC(=O)NCc4ccc(C)cc4)ccn3n2)cc1	1.8	3.3
32	Cc1c(N)cccc1CS(C)(=O)=O	18.2	22.2
33	OC1(c2cccc(C(F)(F)F)c2)CCN(Cc2nc(COc3ccccc3)no2)CC1	2.9	8.8
34	O=S(=O)(NC(=S)NC1CCCCC1)c1ccc(Br)cc1	-0.8	1.6
35	O=C1NC2(CCN(S(=O)(=O)c3ccccc3)CC2)Nc2cc(Cl)ccc21	10.7	2.5
36	CC(C)S(=O)(=O)c1ccc(C(=O)NNC(=O)c2cc(Cl)cn2C)cc1	3.1	8.0

In the list so far, five have fluorine.
no.	molecule	NPYLR7 agonist max-min	NPYLR7 agonist
14	CC(=O)c1ccc(N2CCN(C(=O)c3csc(-c4ccccc4)n3)CC2)c(F)c1	-3.9	-2.3
16	CSC(=NS(=O)(=O)c1cccs1)Nc1ccc(F)cc1	4.0	6.4
21	COc1ccc2c(c1)OC(C)CN(CC(=O)NCC(c1ccc(F)cc1)N1CCCC1)C2 (stereo not given)	-3.8	10.4
23	CCc1nn(-c2ccc(F)cc2)c(N2CCN(C(C)C)CC2)c1CN(CC(C)C)C(=O)c1ccc(Cl)c(Cl)c1	17.2	10.0
33	OC1(c2cccc(C(F)(F)F)c2)CCN(Cc2nc(COc3ccccc3)no2)CC1	2.9	8.8

An excerpt of these results, with two lines to a compound:
Second line of a record – NPYLR7 agonist max-min, NPYLR7 agonist
32) Cc1c(N)cccc1CS(C)(=O)=O
 : 18.2, 22.2
26) COCCn1cc(NC(=O)Nc2ccccn2)c2ccccc21
 : 11.2, 17.9

More records:
no.	molecule	NPYLR7 agonist max-min	NPYLR7 agonist
37	O=S(=O)(Nc1ccc2nc(N3CCOCC3)sc2c1)c1ccc(Cl)s1	6.9	1.0
38	CCc1nc(N(CCC(=O)Nc2ccccc2)CCc2ccccc2)c2ccc(Cl)cc2n1	39.6	27.5
39	CCc1cc(NCc2cc(OC)cc(OC)c2)n2ncnc2n1	19.5	29.9
40	CCOC(=O)c1ccccc1NC(=O)CSc1ccc(-c2ccncc2)nn1	-20.8	-17.7
41	N#Cc1ccc(NC(=O)CSc2nncn2CCc2cccs2)cc1	12.6	14.9
42	O=C(O)c1ccc(CSc2nc(-c3ccccc3)cc(N3CCOCC3)n2)o1	14.4	15.0
43	CN(Cc1ccco1)C(=O)CN1CCc2ccccc2C1	-3.0	-1.0
44	Cn1cc(C(=O)NCCCc2ccccc2)c2[nH]c(=O)n(-c3ccccc3)c(=O)c21	0.3	2.3
45	CCOC(=O)c1sc2ncn(CC(=O)c3ccc(C)c(C)c3)c(=O)c2c1C	10.0	12.1
46	C=CCN(CC(=O)N1CCc2sccc2C1COc1cccc(F)c1)C(=O)C1CC1 (stereo not given)	5.8	-2.7
47	Cc1nn2c(-n3ccnc3C)c3c(nc2c1-c1ccccc1)CCC3	3.3	0.7
48	O=C(CSc1nc2c([nH]c3ccccc32)c(=O)n1-c1cccc(Cl)c1)Nc1nccs1	23.4	0.1
49	CCOC(=O)C1CCN(C(=O)CCCSc2ccc(NC(=O)C3CC3)nn2)CC1	-2.5	-0.4
50	COc1ccc(-c2cc(C(F)(F)F)n3ncc(C(=O)Nc4ccc(F)cc4F)c3n2)cc1	-5.9	-4.9
51	CN(CCC1CCCCO1)c1nncc(-c2ccccc2)n1 (stereo not given)	0.2	0.9
52	O=C(C1CC1)N1CCCC(OCc2ccc(F)cc2F)C1 (stereo not given)	-19.1	-21.9
53	CCC(C)C(NC(=O)CN(C)Cc1ccccc1)C(=O)OC (stereo not given)	1.0	2.9
54	CCC/C=C/c1ccc(C(=O)NCC)s1	15.4	16.3
55	CC(C)[C@@H](CO)Nc1nccc2[nH]c(-c3cccc(C(F)(F)F)c3)nc12	-12.4	-5.7
56	CCOC(=O)CC1=C(C(=O)OCC)C(c2ccccc2F)C(C#N)C(=N)O1 (stereo not given)	-4.8	-1.2
57	O=C(c1cccnc1SC(F)F)N1CC2C3CCC(C3)C21 (stereo not given)	-3.6	-1.4
58	Cc1ccc(C(=O)N2CCCSCC2)c(F)c1	-9.2	-2.7
59	Cn1cc(C(=O)NC(C)(c2ccccc2)c2ccccc2)ccc1=O	6.1&0.1	9.4&1.2
60	O=C(NCCCN1CCOCC1)c1cc2n(n1)CCN(Cc1c(Cl)cccc1Cl)C2=O	13.5	13.3
61	CCOC(=O)c1ccc(N=C2SC(C(=O)Nc3cccc(C)c3)CC(=O)N2C)cc1 (stereo not given)	-2.3	1.4
62	c1ccc2c(c1)CCN(c1nc3cc4c(cc3s1)OCO4)C2	1.9	2.8
63	Cc1ccc(Cl)c(NSc2ccc(Cl)cc2)c1	5.6	7.0
64	Cc1ccc(-c2ccc(=O)n(Cc3ccncc3)n2)cc1	2.4	8.8
65	COC(=O)c1sc(N)c(C(=O)OC)c1CSc1nnc(C2CC2)n1Cc1ccco1	-5.6	-2.1
66	CCCCCCCCCC1NC(C(=O)O)Cc2c1[nH]c1ccccc21 (stereo not given)	-6.5	-4.1
67	Cc1nn(CC(=O)Nc2ccccc2O)c(C)c1[N+](=O)[O-]	-3.6	-1.8
68	CCN(C/C=C/c1ccccc1)C(=O)c1ccc(-n2cnnc2)cc1	-1.4	0.6
69	O=C(CC(C(=O)O)N1CCCCC1)Nc1ccc(N=Nc2ccccc2)cc1 (stereo not given)	-7.8	-7.8
70	COC(=O)c1ccc(CSc2ccc(NC(=O)c3cccs3)nn2)o1	-1.2	7.7
71	Cc1ccc(CN(C)C(=O)c2sccc2S(=O)(=O)N2CCCCC2)o1	8.4	6.9
72	Cn1cc(C2c3nc[nH]c3CCN2Cc2cccc3cccnc23)cn1 (stereo not given)	5.4	7.0
73	COCc1nn2c(nnc3c(=O)n(CC4CCCO4)ccc32)c1-c1ccc(F)cc1 (stereo not given)	0.1	2.3
74	CCCCN1C(SCC(=O)Nc2cccc(Cl)c2)=NS(=O)(=O)c2ccccc21	7.0	5.9
75	CCN(CC)C(=O)C1CCCN(C(=O)NC2CCCCC2)C1 (stereo not given)	-3.8	-1.0
76	Cc1cccc2c(=O)nc(-c3ccccc3Cl)oc12	6.7	7.2
77	Cc1ccc(C)c(-n2cc(CNCCCN3CCC(O)CC3)c(-c3ccccc3)n2)c1	-6.7	-5.0
78	Cn1cc(C(=O)Nc2cccc(Br)c2)c2[nH]c(=O)n(-c3ccccc3)c(=O)c21	1.6	5.7
79	COc1ccc(NC(=O)CCC2CCCN(S(=O)(=O)c3cc(C)ccc3C)C2)c(C)c1 (stereo not given)	-0.6	4.5
80	CCc1cccc2c(C(CC(=O)NCCCN3CCOCC3)c3cccc(F)c3)c[nH]c12 (stereo not given)	17.9	5.6
81	COc1ccc(CCNC(=O)CN2CN(c3ccccc3)C3(CCN(C(=O)c4ccc([N+](=O)[O-])cc4Cl)CC3)C2=O)cc1OC	17.4	23.6
82	OC1CC(c2ccccc2)NC2(CCCCC2)C1 (stereo not given)	-2.8	-0.7
83	CC(=O)N1CCC[C@H]1C(=O)N(C)CC1CCN(CCc2cccc(C(F)(F)F)c2)CC1	2.6	3.9
84	CCOc1cc(S(=O)(=O)N2CCCCC2)ccc1Br	2.9	4.6
85	CCC(COC)NC(=O)c1cncn1-c1ccc(-c2ccccc2C)cc1 (stereo not given)	24.1	11.7
86	COc1ccc(Cn2c(SCC#N)nc3c(-c4ccccc4)c[nH]c3c2=O)cc1	-3.2	0.7
87	CC1=NS(=O)(=O)c2cc(S(=O)(=O)N3CCOCC3)ccc2N1	0.7	1.2
88	CCOCCNC(=O)c1cncn1-c1cccc(-c2ccccc2C(F)(F)F)c1	-7.8	-3.3
89	CC1(c2ccccc2)NC(=O)N(CC(=O)NC2CCCCCCC2)C1=O (stereo not given)	-1.7	2.9
90	O=C(CN1CCN(C2CCS(=O)(=O)C2)CC1)Nc1ccccc1Cl (stereo not given)	2.6	5.6
91	Cc1ccc(CSc2nc(CC(=O)O)cs2)cc1	-3.5	-1.4
92	COc1cccc(S(=O)(=O)N2CCN(c3cc(S(=O)(=O)N4CCCC(C)C4)ccc3OC)CC2)c1 (stereo not given)	12.0	14.7
93	Fc1ccc(Br)cc1C1CC(c2cccnc2)=Nc2ncnn21 (stereo not given)	4.6	4.9
94	COC(=O)CC(=O)NC1CCN(c2ccccc2C(=O)N(C)C2CCCCC2)CC1	9.4	-1.4
95	CN(C)c1ccc(C(CNS(C)(=O)=O)N2CCOCC2)cc1 (stereo not given)	4.3	5.0

A portion of the library; count on the stated rates, not on these rows.
